gsp ag = agonists of gsp mutant (McCune-Albright syndrome); AID 624287; actives 0.13% (n = 340,000); Potency, µM (highest dose often 76.9 µM), for inactives: top-dose activation (cAMP increase), usual class: activators; gsp mutant cells, cAMP HTRF, 30 min; control for the full effect not named in the record; active = well fitted activation curve with a large enough effect; inconclusive = small, poorly fitted or top-dose-only effect, or another doubt; inactive = no such curve, though single readings can be large or run the other way; cell line not stated here;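 further: phosphodiesterase inhibitor Ro 20-1724 added with compounds to block cAMP breakdown; potency means the concentration at half of the fitted maximal effect; nearly all actives have a fitted effect of over 60% in size; about a fifth of the inactives were tested at one dose only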
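Cells in DMEM/10% FBS with G418 were pretreated with compounds in DMSO plus […] (300 uM stock) for 30 min at 37C. cAMP was measured by HTRF (cAMP-d2 plus anti-cAMP antibody-K) after 30 min at room temperature.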
gsp antagonist = gsp mutant antagonism. gsp-mutant cells, cAMP HTRF, 30 min; control for the full effect not named in the record. Potency, µM (top dose mostly 76.9 µM), inactives show at the highest dose activity change, negative = inhibition, usual class: inhibitors. actives 0.4% (n = 340,000); active = falling curve of any shape with a large fitted effect; inconclusive = falling curve, mostly with a smaller effect; inactive = flat or rising curve; cell line not stated here;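 further: intracellular cAMP measured with PDE inhibitor Ro 20-1724 present during compound exposure; potency means the concentration at half of the fitted maximal effect; on the % scale 0 is the no-effect control and ±100 the full control effect; nearly all actives have a fitted effect of over 65% in size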
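HTRF cAMP measurement after 30 min RT detection following 30 min, 37C compound treatment alongside […] (added as 300 uM solution) in G418-selected cells seeded at 2000/well and grown 16–24 h.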
Menin-MLL FL inh = displaces fluorescein MLL peptide from human menin. Fluorescence polarization, fluorescein-MLL peptide displacement from menin. FP activity change, % at 61.4 µM. 290,000 tested, under 10 active; inconclusive = falling polarisation curve, or a change in total fluorescence; inactive = total fluorescence flat and polarisation flat or rising; no compound was filed as active; the % refers to the polarisation; negative = inhibition;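 further: % of control where 0% means no effect; inhibitors lower the polarisation; unlabelled MLL peptide was the positive control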
Sfp PPTase inh = inhibitors of Bacillus subtilis Sfp phosphopantetheinyl transferase; AID 1490; actives 3.5% (n = 310,000); Q9F4F7; Potency, µM, without a hit: max response, negative = inhibition, hits mostly inhibitors; Biochemical Sfp PPTase activity, qHTS; active means well fitted inhibition curve with a large enough effect; inconclusive means small, poorly fitted or top-dose-only effect, or another doubt; inactive means no such curve, though single readings can be large or run the other way;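 further: the enzyme is Sfp with the accession as filed and its product quenches rhodamine fluorescence; potency means the concentration at half of the fitted maximal effect; 0% = enzyme reaction without inhibitor and -100% = no enzyme wells; top concentration of the series not given in the record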
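Buffer: 50 mM Hepes-Na pH 7.6, 10 mM MgCl2, 0.01% Nonidet P-40, 0.01% BSA. Enzyme 15 nM, pre-exposed to compound 15 min; substrates then added and fluorescence change tracked over 30 min.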
ClpP mod = qHTS Assay for Activators of ClpP; ATP-dependent Clp protease proteolytic subunit (Bacillus subtilis (strain 168)), P80244; actives 1.9% (n = 340,000); Potency, µM (titrated, usually from 57.5 µM), without a hit: at the top dose activity change, negative = active; purified B. subtilis ClpP, FRET peptide cleavage, 20 min; active = well fitted falling curve with a large enough effect; inconclusive = small, poorly fitted or top-dose-only effect; inactive = no such curve, though single readings can be large or run the other way; further: potency means the concentration at half of the fitted maximal effect; the source files actives as falling curves though it sought activators and does not explain the sign; nearly all actives have a fitted effect of over 65% in size; many hits overshoot -100%
Target sequence (P80244 whole entry, looked up): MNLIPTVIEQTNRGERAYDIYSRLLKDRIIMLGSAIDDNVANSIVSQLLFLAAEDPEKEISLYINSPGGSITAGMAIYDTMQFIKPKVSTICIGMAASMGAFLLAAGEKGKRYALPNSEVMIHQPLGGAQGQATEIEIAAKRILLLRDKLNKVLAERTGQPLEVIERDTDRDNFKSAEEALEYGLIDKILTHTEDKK
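ClpP 10 microg/mL final, pH 8 Tris/KCl buffer with BSA, glycerol, Tween-20; compound pinned in; FRET-FV substrate; RT 20 min; Ex320/Em430; ΔFRET vs ADEP 5.8 microM, DMSO, no enzyme.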
TRPV1 PAM = enhances activation of the human vanilloid receptor TRPV1 | Q8NER1 | TRPV1-expressing cells, Fluo-8 calcium influx, capsaicin EC20 potentiation; host cell line not named in the record; control for the full effect not named in the record | potentiation, % at 8.33 µM | actives 0.02% (n = 320,000); active means potentiation above 80%; inconclusive means 30% to 80%; inactive means below 30%; further: 0% is about no effect
Target sequence (Q8NER1 whole entry, looked up): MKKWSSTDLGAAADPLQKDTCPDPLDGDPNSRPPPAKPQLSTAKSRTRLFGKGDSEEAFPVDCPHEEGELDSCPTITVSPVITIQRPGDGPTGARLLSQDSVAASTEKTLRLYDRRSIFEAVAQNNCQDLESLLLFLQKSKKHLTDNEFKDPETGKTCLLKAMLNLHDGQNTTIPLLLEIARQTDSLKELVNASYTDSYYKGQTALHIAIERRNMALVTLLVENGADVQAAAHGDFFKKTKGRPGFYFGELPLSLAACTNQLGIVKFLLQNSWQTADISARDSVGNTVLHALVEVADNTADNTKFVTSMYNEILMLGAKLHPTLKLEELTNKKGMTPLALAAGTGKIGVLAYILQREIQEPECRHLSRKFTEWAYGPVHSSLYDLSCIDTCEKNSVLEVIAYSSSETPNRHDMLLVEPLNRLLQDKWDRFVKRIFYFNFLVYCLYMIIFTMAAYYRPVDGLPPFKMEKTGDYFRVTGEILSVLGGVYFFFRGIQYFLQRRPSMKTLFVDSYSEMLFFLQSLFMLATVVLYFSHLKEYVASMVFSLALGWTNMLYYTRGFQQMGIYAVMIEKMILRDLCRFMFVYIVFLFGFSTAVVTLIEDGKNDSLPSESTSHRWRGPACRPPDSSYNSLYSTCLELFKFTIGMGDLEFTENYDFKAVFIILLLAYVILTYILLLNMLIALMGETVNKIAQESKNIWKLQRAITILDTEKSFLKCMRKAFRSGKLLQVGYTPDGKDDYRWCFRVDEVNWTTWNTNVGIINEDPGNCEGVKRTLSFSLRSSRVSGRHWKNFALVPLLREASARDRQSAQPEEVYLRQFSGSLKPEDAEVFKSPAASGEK
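Fluo-8 calcium influx in TRPV1-expressing cells, kinetic read (ex 480/em 520 nm). Compound added and read 3 min for agonist activity, followed by capsaicin at EC20 final and 2 min further read for enhancement.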
CtBP-E1A blk = inhibitors of CtBP/E1A interaction. AlphaScreen GST-E1A/His-CtBP binding, 1536-well; stronger effect = lower value; control for the full effect not named in the record. activity change, % (no concentration beside the values). actives 0.49% (n = 340,000). AID 651724; in the data active means activity change below about -65%; inconclusive means about -30% to -65%; inactive means above about -30%; further: on the % scale 0 is the no-effect control and ±100 the full control effect; compound concentration not given in the record
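In 5 uL wells, 23 nL compound meets equimolar GST-E1A and His-CtBP (5X stock 125 nM each) for 2 h, 37 °C. Beads (5X, 50 ug/mL) then 1 h, 37 °C, dark.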
Numbers without * were called inactive; ? = inconclusive; nt = no result given; & = joins results of further samples; [ ] = remark or other dose. No enrichment for hits. Share with any hit: about 5.3%.

SMILES	gsp ag	gsp antagonist	Menin-MLL FL inh	Sfp PPTase inh	ClpP mod	TRPV1 PAM	CtBP-E1A blk
CN(C(=O)COC(=O)c1nc(Cl)c(Cl)c(Cl)c1Cl)C1CCS(=O)(=O)C1 (stereo not given)	5%[15.4 µM]	-4%	?	-11%	-14%	-1	8
Cc1cc2nc(N)sc2cc1[N+](=O)[O-]	-21%	2%	0.5	7%	1.2%	-4	45
CCOc1c(Br)cc(C(N)=O)cc1OCc1ccccc1	19%	-9%	-2.9	6%	nt	-12	1
Cc1ccc(S(=O)(=O)N(C)S(=O)(=O)c2ccc(C)cc2)cc1	nt	2%	nt	nt	-6.1%	-8	0
COc1cc2[nH]c(=S)nc(NCc3ccccc3)c2cc1OC	?	13%	0.7	6%	-0.9%	-1	-82*
O=C(O)CCc1ccc(-c2ccccc2)n1-c1cccc(C(=O)O)c1	0%	6%	-6.3	71µM*	-8.4%	14	nt
Cc1nc2scc(C)n2c(=O)c1S(=O)(=O)Nc1ccc(N2CCN(S(C)(=O)=O)CC2)cc1	12%	-3%	2.1	8%	0.1%&-0.8%	0	-15
COc1ccc(-c2cn[nH]c2C)cc1OC	10%	-7%	0.7	-1%	nt	-9	-8
CCNC(=S)NS(=O)(=O)c1ccc(F)cc1	20%[15.4 µM]	9%	7.6	-11%	nt	6	8
COc1ccccc1-c1cc2ccccc2[nH]1	8%	-1%	-0.8	-2%	40µM*	?	-2
COc1ccc(OC)c(CCNC(=O)CC2Oc3ccccc3NC2=O)c1 (stereo not given)	1%	-9%	3.4	-16%	2.9%	6	0
COc1ccc(OC)c2c(C)cc(C)nc12	-29%	8%	3.0	4%	-2.1%	0	-1
CCc1[nH]nc2c1C1(C(=O)N(Cc3ccccc3)c3ccccc31)C(C#N)=C(N)O2 (stereo not given)	-7%	-14%	1.2	?	0.9%	16	-3
Cc1cc(C)c(N=Cc2c(O)c3ccccc3oc2=O)c(C)c1	-10%[15.4 µM]	6%	-5.6	?	0.0%	-17	-5
C/C=C/c1ccc(OCCCCN2CCN(CC)CC2)c(OC)c1	-63%[inhibitor]	8%	-3.3	?	-3.5%	4	nt
Cc1cccnc1NC(=O)Nc1ccccc1	25%	17%	-0.7	16%	-2.7%	14	-15
O=C(Nc1ccc(Cc2ccncc2)cc1)c1ccc(Br)o1	0%	-18%	-3.1	1%	0.6%	-9	-2
O=C(NC1CCCCC1)C(c1c(F)cccc1Cl)N(C(=O)c1csnn1)C1CC1 (stereo not given)	-9%	3%	1.1	8%	nt	20	1
O=C(COC(=O)C(c1ccccc1)c1ccccc1)NCc1ccco1	-107%[inhibitor]	-1%	4.7	-14%	-0.7%	-21	1
Cc1cccc(CCNC(=O)c2cc(S(=O)(=O)N3CCCCC3)c[nH]2)c1	?	-7%	0.2	1%	0.1%&-0.9%	-3	2
O=C(c1cnn2c(C(F)(F)F)cc(-c3ccccc3)nc12)N1CCCc2ccccc21	-28%	3%	-0.5	21%	-4.3%	-3	7
CC1CCCN(C(=O)c2ccc3c(=O)n4nc(Nc5ccccc5)sc4nc3c2)C1 (stereo not given)	?	nt	nt	nt	-25%	nt	0
Cc1nc(NC(=O)CN2CCOCC2)sc1-c1ccccc1	-7%	11%	1.0	-14%	-2.0%	-16	-6
N=c1c(C(=O)NCC2CCCO2)cc2c(=O)n3ccccc3nc2n1C1CCCCC1 (stereo not given)	?	-2%	2.6	21%	nt	1	-1
COc1ccc(NC(=S)NCCc2ccccc2OC)c(OC)c1	7%	3%	-2.4	89µM*	-2.7%	-10	-11
O=C1[C@H]2[C@H](C=CC[C@H]2C(=O)N2CCOCC2)CCN1Cc1ccccc1	nt	8%	nt	nt	-4.6%&1.4%	nt	0
CCOc1ccc(NS(=O)(=O)c2ccc(C(=O)NCC(c3ccc(OC)cc3)N3CCOCC3)cc2)cc1 (stereo not given)	18%	-13%	nt	nt	-2.2%	-5	-19
NS(=O)(=O)c1ccc(CNC(=O)c2cc(-c3ccccn3)nc3ccc(Cl)cc23)cc1	-1%[15.4 µM]	22%	-12	-18%	nt	-10	0
CC(C)(C)C(=O)OCc1nc(-c2ccc(O)c(O)c2)cs1	12%[15.4 µM]	-5%	-1.0	56µM*	nt	-10	-4
CC(C)C(NC(=O)c1cccs1)c1nnc(SCC(=O)Nc2nccs2)n1C (stereo not given)	-21%	4%	-0.9	3%	0.3%	-21	-2
O=C(c1cc(COc2ccc(F)c(F)c2)on1)N1CCN(C/C=C/c2ccccc2)CC1	-22%	12%	1.4	2%	0.4%	-5	-12
CCOC(=O)CSc1nc(Cc2ccccc2)nc2ccccc12	?	5%	0.2	-9%	nt	-14	-2
CC(=O)Nc1ccc(NC(=O)CSc2nc3[nH]ncc3c(=O)n2-c2ccccc2)cc1	10%	-6%	3.6	29%	-1.8%	-2	nt
O=C1C(Cl)=C(N2CCCC2)C(=O)N1c1ccccc1F	-38%[inhibitor]	-16%	0.1	6%	0.7%	-4	13
O=C(Nc1cccc(C(F)(F)F)c1)/C(=C\c1ccco1)NC(=O)c1cccs1	-34%[inhibitor]	14%	9.0	-12%	-1.2%	3	-2
COc1ccccc1NS(=O)(=O)c1cccc(C(=O)N/N=C/c2cn(-c3ccccc3)nc2-c2ccccc2)c1	0%[15.4 µM]	0%	7.3	20%	0.8%	-2	-3
O=C(NCCN1CCOCC1)C1CCN(S(=O)(=O)N2CCCCC2)CC1	-25%	4%	2.9	17%	-3.5%	-2	3
CC(=O)Nc1ccc(CN2CCc3c([nH]c4ccccc34)C2C(C)(C)C)cc1 (stereo not given)	-20%	-1%	1.6	-7%	-0.5%	-4	-12
COCCNC(=O)/C(C#N)=C/c1ccc(OCc2ccccc2)cc1	-6%[15.4 µM]	3%	-9.4	10%	nt	-14	-30
CCNc1ccc(Br)cc(C(=O)/C=C/c2ccc(Cl)cc2Cl)c1=O	10%	-8%	?	22µM*	-1.7%	7	-9
Cc1ccc(OCC(=O)Nc2ccccc2F)cc1C	-7%[15.4 µM]	9%	1.5	10%	nt	-8	-1
CN(c1ccccc1)S(=O)(=O)c1ccc(NC(=S)Nc2ccccc2)cc1	22%	6%	-1.2	8%	-0.1%	0	4
COc1cc(O)c(/C=N/NC(=O)c2ccncc2)c(OC)c1[N+](=O)[O-]	1%	7%	0.8	13%	1.9%	4	nt
COc1cc2c(C(=O)OCCN(C)C)c(CSc3ccccc3)n(C)c2cc1Br	32%[15.4 µM]	-34%	1.1	8%	-0.9%	1	-4
CC1CCN(c2cc(=O)n(C3CCCCC3)c(=O)[nH]2)CC1	-17%	5%	2.3	17%	-0.1%	-23	6
CCOC(=O)C1Oc2ccccc2C(c2ccoc2)=C1C(=O)OC (stereo not given)	nt	4%	6.0[94.6 µM]	-11%	2.5%	nt	-1
Cc1cc(C)nc(N2CCN(c3nc(-c4ccccc4)nc4c3oc3ccccc34)CC2)n1	-20%	7%	nt	nt	-0.5%	nt	nt
CCn1c(=O)c2c(nc(SCC(=O)Nc3ccccc3)n2C)n(C)c1=O	-2%[15.4 µM]	9%	1.2	17%	-0.2%	6	20
NC(=O)C1CCN(C(=O)COc2ccc3ccccc3c2)CC1	-12%	13%	0.7	6%	-1.2%	-9	5
O=c1c2ccccc2nc2c3ccccc3ncn12	-11%	-1%	3.2	7%	?	-19	-4
CC(C)(C)NCC(O)CON=C1c2ccccc2-c2ccccc21 (stereo not given)	9%[15.4 µM]	11%	1.7	-22%	nt	5	-16
O=C(CN1CCN(S(=O)(=O)c2ccccc2C(F)(F)F)CC1)NCc1cccs1	-2%[15.4 µM]	4%	nt	nt	nt	-4	1
Cc1nn(C)c(C)c1CNC(=O)Nc1cccc(Cl)c1C	12%[15.4 µM]	8%	-3.1	-4%	-2.8%	-15	-15
CCOc1ccc(NS(=O)(=O)c2cccc(C(=O)N(C)Cc3ccco3)c2)cc1	-42%[inhibitor]	-22%	nt	nt	0.0%	0	nt
COc1ccc(-n2c(C)c(C(=O)O)c3cc(OC)c4ccccc4c32)cc1	9%[15.4 µM]	-15%	1.7	10%	nt	3	-17
CC(C)C[C@@H](CN)NC(=O)c1nc[nH]c1C(=O)N[C@@H](CC(=O)O)C(=O)CNC[C@H](C)NC(=O)c1nc[nH]c1C(=O)N[C@@H](CC(=O)O)C(=O)O	nt	10%	nt	nt	-0.7%	nt	-25
Cc1noc(C)c1C(=O)NCC1COc2ccccc2O1 (stereo not given)	-6%	14%	nt	nt	0.8%	-2	-1
CN(Cc1nccn1C)C(=O)CC1C(=O)NCCN1Cc1ccccc1C(F)(F)F (stereo not given)	5%	7%	-10.0	0%	nt	2	-2
COc1cc(C=O)ccc1OCC(=O)Nc1ccccc1N1CCOCC1	3%	-2%	nt	11%	-1.9%	1	3
Cc1ccc(CNC(=O)Cn2nnc(C(=O)Nc3cccc(C)c3C)c2N)cc1	?	9%	nt	16%	3.0%	1	3

(list continues)
SMILES	gsp ag	gsp antagonist	Menin-MLL FL inh	Sfp PPTase inh	ClpP mod	TRPV1 PAM	CtBP-E1A blk
Fc1ccc(-c2cc3nc(-c4ccccc4)cc(N4CCOCC4)n3n2)cc1	-50%[inhibitor]	-7%	4.3	?	3.5µM*	-5	-1
Cc1cc(C)cc(NC(=O)CCc2nc3ccccc3[nH]2)c1	18%	-6%	2.8	12%	0.2%	nt	-1
CCNc1nc(NCC)nc(N/N=C/c2ccc(N(C)C)cc2)n1	11%[15.4 µM]	-4%	-2.2	25%	nt	-1	-22
CCCCC#Cc1ccc(C(=O)NNC(=O)Nc2ccccc2)o1	9%[15.4 µM]	14%	-0.3	6%	0.2%	25	3
N#Cc1ccsc1NC(=O)COC(=O)c1cc(Br)ccc1O	-16%[15.4 µM]	10%	7.4	10%	nt	-7	-6
COc1ccc(Cl)c(Cn2c(NCCCO)nc3c2c(=O)n(C)c(=O)n3C)c1	20%	11%	-0.1	6%	-0.5%	5	7
CCS(=O)(=O)Nc1cccc(-c2ccc3nnc(C)n3n2)c1	nt	nt	2.4	17%	nt	6	nt
C=CCOc1ccc(Br)cc1CNCCO	-1%[15.4 µM]	15%	-1.6	-8%	nt	5	5
CCOc1ccc(CCNC(=O)CSc2cc(=O)n(C)c3ccc(Cl)cc23)cc1OCC	-17%	-11%	1.7	34%[activator]	-5.5%&0.8%	21	2

From PubChem
